Compound activity deposited in PubChem by Johns Hopkins Ion Channel Center.
KCNQ2 inh – KCNQ2 channel blockers in CHO-K1 cells – cell-based, FluxOR thallium flux, B-score, primary screen (AID 2156); 310,000 compounds, 1.1% hits; O88943; 20 min; stronger effect = lower value; only compounds with negative scores are shown here; some inactives read as strong as hits; B-score at 10 µM;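 active = fluorescence ratio B-score at most minus 3 library SDs, with starting brightness B-score within 2 library SDs, cut at about -5.5 in these data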
Target sequence (O88943 whole entry, looked up): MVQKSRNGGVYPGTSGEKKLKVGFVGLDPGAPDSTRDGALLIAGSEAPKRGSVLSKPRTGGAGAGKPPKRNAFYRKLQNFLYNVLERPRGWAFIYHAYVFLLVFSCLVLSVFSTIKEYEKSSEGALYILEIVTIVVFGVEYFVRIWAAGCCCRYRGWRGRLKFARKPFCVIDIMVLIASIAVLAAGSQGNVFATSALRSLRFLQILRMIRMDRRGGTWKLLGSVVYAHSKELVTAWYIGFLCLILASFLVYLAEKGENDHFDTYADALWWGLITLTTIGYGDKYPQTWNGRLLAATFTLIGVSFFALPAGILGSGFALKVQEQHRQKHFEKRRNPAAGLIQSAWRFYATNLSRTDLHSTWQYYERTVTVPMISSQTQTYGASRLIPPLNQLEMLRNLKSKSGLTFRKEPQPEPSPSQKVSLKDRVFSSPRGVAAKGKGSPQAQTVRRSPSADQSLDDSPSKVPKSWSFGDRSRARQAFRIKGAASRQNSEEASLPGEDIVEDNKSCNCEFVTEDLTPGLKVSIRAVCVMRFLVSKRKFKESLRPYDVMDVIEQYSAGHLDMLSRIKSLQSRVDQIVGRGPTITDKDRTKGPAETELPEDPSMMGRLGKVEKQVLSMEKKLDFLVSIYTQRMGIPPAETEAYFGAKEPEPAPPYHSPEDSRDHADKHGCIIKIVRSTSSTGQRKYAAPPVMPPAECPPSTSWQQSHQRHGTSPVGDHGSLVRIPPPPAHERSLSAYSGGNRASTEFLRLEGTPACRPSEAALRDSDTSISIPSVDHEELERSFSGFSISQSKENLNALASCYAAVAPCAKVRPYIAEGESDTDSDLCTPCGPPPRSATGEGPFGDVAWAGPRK
KCNQ2 inh baseline – second read-out of KCNQ2 inh, no call of its own (marks repeat the call); B-score; measured here: initial fluorescence intensity artifact check;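 brightness before thallium and not channel activity; 0 = typical well and far values either way flag optical interference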
Starred values were filed as active, the others as inactive; i = inactive. These rows are one share of the data. The share of hits here may be higher or lower than overall.

Sample of the layout (three entries):
SMILES	KCNQ2 inh	KCNQ2 inh baseline
Cn1cccc1C(=O)NC(=O)COC(=O)Cc1coc2ccc3ccccc3c12	i	-1.36
CN1C(=O)C2(c3ccccc31)c1c(oc3ccccc3c1=O)C(=O)N2CCO (configuration not stated)	i	0.02
Cn1cnc([N+](=O)[O-])c1Sc1ncn[nH]1	i	1.35

The listing (from the top)
SMILES	KCNQ2 inh	KCNQ2 inh baseline
Cn1cccc1C(=O)NC(=O)COC(=O)Cc1coc2ccc3ccccc3c12	i	-1.36
CN1C(=O)C2(c3ccccc31)c1c(oc3ccccc3c1=O)C(=O)N2CCO (configuration not stated)	i	0.02
Cn1cnc([N+](=O)[O-])c1Sc1ncn[nH]1	i	1.35
O=C(CCN1CCCCO1)N1CCCC(Nc2cccc(F)c2)C1 (configuration not stated)	i	0.23
Cc1ccc(/C(N)=N/OC(=O)C(C)c2ccc([N+](=O)[O-])cc2)cc1 (configuration not stated)	i	-0.9
Cc1cc(-c2ccc(C)c(S(=O)(=O)N3CCN(c4ccccn4)CC3)c2)on1	i	0.75
COc1cc2cc(C(c3nnnn3C(C)(C)C)N3CCc4ccccc4C3)c(=O)[nH]c2cc1OC (configuration not stated)	i	0.98
Cc1ccc(C(=O)N2CCCC(Nc3ccc(C)c(C)c3)C2)c(=O)[nH]1 (configuration not stated)	i	0.69
O=C(OC1CCOC1=O)c1cc(-c2ccccc2)nc2ccccc12 (configuration not stated)	i	-0.03
CC(C)(CC(=O)O)CC(=O)N1CCN(c2nc3ccc(Cl)cc3s2)CC1	i	-1.8
Cc1ccc(C(=O)Nc2ncc(Cc3ccc(F)cc3)s2)o1	i	-0.57
O=C(N1CCOCC1)N1CCC(c2nc(-c3ccc(S(=O)(=O)N4CCOCC4)cc3)no2)CC1	i	3.76
Cc1nn(Cc2c(F)c(F)c(F)c(F)c2F)c(C)c1NC(=O)c1cccc(COc2ccccc2Cl)c1	i	-0.36
CSc1ccc(CN(C)C(=O)c2cc(S(=O)(=O)NCc3ccccc3)ccc2C)cc1	i	1.54
Cc1ccc(-n2c(SCC(=O)Nc3cccc(S(=O)(=O)NC4=NCCCCC4)c3)nc3ccccc3c2=O)cc1C	i	0.57
CC(=O)n1cc([C@H]2C=C(C(=O)N3CCN(Cc4ccccc4)CC3)O[C@@H](OCc3ccc(CO)cc3)C2)c2ccccc21	i	-0.4
CCN(CC)S(=O)(=O)c1ccc(N2CCCC2)c(NS(=O)(=O)c2ccc(F)cc2)c1	i	0.98
O=C(NC1CCCCC1)C(c1ccco1)N(C(=O)c1csnn1)c1cccc(Cl)c1 (configuration not stated)	i	-0.89
Cc1n[nH]c(C)c1S(=O)(=O)N1CCN(c2ccccn2)CC1	i	0.41
COc1ccc(Cl)cc1NC(=O)N1CCN(c2ccccc2OC)CC1	i	0.12
Cc1cc(Cl)ccc1NC(=O)CN1C(=O)NC2(CCCc3ccccc32)C1=O (configuration not stated)	i	-0.03
Cc1nnc(NN)n(N)c1=O	i	-0.51
CC(C)c1ccc(-c2csc3ncnc(N4CCN(C)CC4)c23)cc1	i	0.6
CC(C)CN1CCN(Cc2cccn2-c2cccnc2)CC1CCO (configuration not stated)	i	4.54
COc1ccc(NC(=O)CCNS(=O)(=O)c2ccc3c(c2)CC(C)N3C(C)=O)cc1 (configuration not stated)	i	0.42
CN(C)c1ccc(/C(=N\O)c2ccccc2)cc1	i	-1.78
O=C(CNC(=O)c1ccc([N+](=O)[O-])cc1)c1ccccc1	i	-0.56
O=C(CSc1nc2ccccc2c(=O)[nH]1)c1ccc(O)cc1O	i	0.57
COc1ccc(CP(=O)(c2ccccc2)c2ccccc2)cc1	i	1.42
CCC(C)NC(=O)C(=O)NCc1ccccn1 (configuration not stated)	i	-0.74
O=C(/C=C/c1ccc(S(=O)(=O)N2CCOCC2)cc1)NC(=S)Nc1ccc(N2CCOCC2)cc1	i	0.06
N#Cc1c(CSCC(=O)O)cc(=O)n2c1[nH]c1ccccc12	i	1.2
CCCCN1C(=O)C(O)(CC(=O)c2ccccn2)c2ccccc21 (configuration not stated)	i	-0.33
CC(C)[C@H](NC(=O)c1ccccc1)C(=O)OCC(=O)c1ccc2c(c1)NC(=O)CO2	i	0.47
CC(=O)N/C(=N/c1nc(C)cc(C)n1)Nc1cccc(C)c1	i	0.08
CN1CCN(NC(=O)c2cc([N+](=O)[O-])cc([N+](=O)[O-])c2)CC1	i	-1.59
CCN(C(=O)CN1C(=O)S/C(=C\C=C\c2ccccc2)C1=O)C1CCS(=O)(=O)C1 (configuration not stated)	i	0.25
CCCCNC(=S)NC(C)(C)CO	i	-0.01
O=C(N/N=C/c1ccco1)c1ccc(C(=O)N/N=C/c2ccco2)o1	i	-0.27
Cc1cc(C)nc(NS(=O)(=O)c2ccc(NS(=O)(=O)c3ccccc3)cc2)n1	i	1.22
O=C(NCc1ccco1)C1CCN(S(=O)(=O)N2CCC3(CC2)OCCO3)CC1	i	0.15
CC1(C)SC2C(NC(=O)COc3ccccc3)C(=O)N2C1C(=O)O (configuration not stated)	i	0.54
Cc1sc2nc(-c3ccccc3)[nH]c(=O)c2c1-c1ccccc1	i	-1.22
COCC(C)n1c(SCC(=O)N2CCc3ccccc3C2)nc2ccccc2c1=O (configuration not stated)	i	-0.37
NC(=NCCc1ccccc1)NS(=O)(=O)c1ccc2ccccc2c1	i	1.16
O=C(N/N=C/c1ccncc1)c1ccccc1	i	1.58
Cc1ccccc1NC(=S)N(CCN1CCOCC1)Cc1ccccc1F	i	0.89
CC(C)c1ccc(OCC(=O)NC(C)c2ccccc2)cc1 (configuration not stated)	i	0.18
C#Cc1ccc(CN2CCC(Oc3cc(C(=O)NC4CC4)ccc3OC)CC2)cc1	i	1.73
Clc1cccc(C2Nc3cccc4cccc(c34)N2)c1	i	-0.77
C/C(=N\O)c1ccc2[nH]ccc2c1	i	-0.03
O=C(CC(c1ccccc1)c1ccco1)N1CCCCC1 (configuration not stated)	i	-0.91
O=S(=O)(c1ccccc1)N(Cc1cccc(F)c1)c1ccccc1	i	0.01
COc1ccc(C(=O)N2CCCC(Nc3ccc(C(C)C)cc3)C2)c(OC)n1 (configuration not stated)	i	0.02
Cc1noc(C)c1COC(=O)Cc1ccc(Cl)c(Cl)c1	i	0.15
COc1ccc2cc(/C=N/NC(=O)c3ccc(CN(c4cccc(Cl)c4Cl)S(C)(=O)=O)cc3)c(Cl)nc2c1	i	0.39
Cc1ccc(CCNC(=O)c2ccc(NC3=NC4CS(=O)(=O)CC4S3)cc2)cc1 (configuration not stated)	i	0.05
O=C(CNC(=O)c1cccc(F)c1)N/N=C/c1ccc([N+](=O)[O-])s1	i	0.28
COc1ccc(C(=O)N/N=C(\Cc2ncc[nH]2)c2ccccc2)cc1	i	0.35
CC(C)CCNC(=O)[C@H](Cc1ccccc1)N1Cc2ccccc2C1=O	i	-2.05
Additional results:
SMILES	KCNQ2 inh	KCNQ2 inh baseline
COc1cc(CNCCN2CCOCC2)ccc1OCc1c(Cl)cccc1Cl	i	-0.08
Cc1cccc(NCc2ccccc2O)c1C	i	0.59
O=C(NC1CCCC1)c1ccc(COc2ccccc2Br)o1	i	-1.63
Cc1ccccc1C1C(C#N)=C2N=C(N)c3c(sc4c3CCCCC4)N2C2=C1C(=O)CCC2 (configuration not stated)	i	-0.08
Cc1ccc(NC(=O)c2cc3c(=O)oc4ccccc4c3s2)nc1	i	0.35
N#C/C(=C\c1ccncc1)C(=O)Nc1ccc(C(=O)O)cc1	i	1.15
Cc1ccc(Cn2c(SCc3cccnc3)nc3c2c(=O)n(C)c(=O)n3C)cc1	i	0.59
Cc1cc(NC(=O)COC(=O)C2CCC2)no1	i	-0.27
CCc1ccccc1N1CSC2=C(C#N)C(c3ccccc3F)CC(=O)N2C1 (configuration not stated)	i	-0.03
COc1ccc(S(=O)(=O)N2CCC(c3nc4ccccc4[nH]3)CC2)cc1	i	0.05
O=S(=O)(c1ccc(F)cc1)N1CCCc2ccccc21	i	1.54
O=C1OCC2=C1C(c1ccccc1)CC(=O)N2c1ccc(F)cc1 (configuration not stated)	i	0.06
CCOC(=O)[C@@H]1[C@H]2COc3cc(OC)ccc3[C@@H]2N2C(=O)N(c3ccc(Br)cc3)C(=O)[C@]12C	i	-0.12
CCn1c(CSCc2ccc(C)cc2)n[nH]c1=S	i	-0.87
Cc1ccccc1CSCCNC(=O)CSCc1ccc([N+](=O)[O-])cc1	-6.42*	-1.58*
C(=N\c1nccs1)/c1c[nH]c2ccccc12	i	-0.99
N#CC(C#N)=Cc1ccc(NC(=O)c2ccc(Br)cc2)cc1	i	0.03
COc1ccc(/C=C/C(=O)NC(=S)NNC(=O)c2ccco2)cc1OC	i	-0.99
C=CCN=C1S/C(=C\c2ccc(N(C)C)cc2)C(=O)N1CC=C	i	-0.09
Cn1c(/C=C/c2ccccc2)nc2ccccc21	i	-1.37
O=C1COc2ccc(C(=O)CSc3ccccc3C(=O)O)cc2N1	i	-0.09
CC(OC(=O)c1nn(C)c(=O)c2ccccc12)C(=O)NC1CCCCC1C (configuration not stated)	i	0.88
O=C1CC(Sc2ccc(Cl)cc2)C(=O)N1Cc1ccncc1 (configuration not stated)	i	-1.47
CCOc1ccc2nc(N(CCN(C)C)C(=O)c3cc4ccccc4cc3OC)sc2c1	i	3.81
Cc1nn(C)c(C)c1S(=O)(=O)N(CC(=O)NCCCN1CCC(C)CC1)c1ccc(C(C)C)cc1	i	-0.18
Cc1cc(C(=O)OCC(=O)NNC(=O)c2cccs2)ccc1[N+](=O)[O-]	i	-0.69
c1csc(Cc2nc3ccccc3[nH]2)c1	i	-0.41
O=Cc1[nH]c2ccccc2c1N(C(=O)CCl)c1ccc([N+](=O)[O-])cc1	-11.6*	-0.87*
Cn1c(=O)c(NCCc2ccccc2)c2c3c(cccc31)C(=O)c1ccccc1-2	i	100
Cn1c(=O)c(C(=O)NCCc2ccccc2)c(O)c2ccccc21	i	-0.15
NC(=O)C1(C(N)=O)OC1c1ccccc1 (configuration not stated)	i	-0.36
COc1ccc(CC(=O)OCC(=O)Nc2ccc3c(c2)OCO3)cc1OC	i	0.58
COc1ccccc1C(=O)NNC1=NS(=O)(=O)c2ccccc21	i	-0.25
O=C1N(c2ccc(Cl)cc2)C(c2ccccc2)N2CCCN12 (configuration not stated)	i	-0.35
CCN(Cc1ccccc1)C(=O)c1cccc(S(=O)(=O)N2CCN(c3ccccc3)CC2)c1	i	-1.32
CC(C(=O)NC(N)=O)N1C(=O)NC(c2ccccc2)(c2ccccc2)C1=O (configuration not stated)	i	0.12
O=[N+]([O-])c1cccc(N/N=C/c2cccc(O)c2O)c1	i	-0.39
O=C(COc1ccccc1)Nc1nnc(-c2ccc(Cl)cc2)o1	i	-0.66
COc1cccc(OC)c1C(=O)Nc1ccc(S(=O)(=O)Nc2ncccn2)cc1	i	0.11
Cn1cnc2cc(NCc3ccc(Cl)cc3)ccc21	i	0.29

By substructure, the entries above containing a cyano group.
SMILES	KCNQ2 inh	KCNQ2 inh baseline
N#Cc1c(CSCC(=O)O)cc(=O)n2c1[nH]c1ccccc12	i	1.2
Cc1ccccc1C1C(C#N)=C2N=C(N)c3c(sc4c3CCCCC4)N2C2=C1C(=O)CCC2 (configuration not stated)	i	-0.08
N#C/C(=C\c1ccncc1)C(=O)Nc1ccc(C(=O)O)cc1	i	1.15
CCc1ccccc1N1CSC2=C(C#N)C(c3ccccc3F)CC(=O)N2C1 (configuration not stated)	i	-0.03
N#CC(C#N)=Cc1ccc(NC(=O)c2ccc(Br)cc2)cc1	i	0.03

Returning to the listing, repeating the four entries before the break.
SMILES	KCNQ2 inh	KCNQ2 inh baseline
O=[N+]([O-])c1cccc(N/N=C/c2cccc(O)c2O)c1	i	-0.39
O=C(COc1ccccc1)Nc1nnc(-c2ccc(Cl)cc2)o1	i	-0.66
COc1cccc(OC)c1C(=O)Nc1ccc(S(=O)(=O)Nc2ncccn2)cc1	i	0.11
Cn1cnc2cc(NCc3ccc(Cl)cc3)ccc21	i	0.29
Cc1nn(-c2ccccc2)c(NC(=O)c2cccs2)c(-c2ccccc2Cl)c1=O	i	-0.13
C#CCOCCOCCOCCNc1nc(N2CCN(C(=O)[C@H]([C@@H](C)CC)n3cc([C@@H](N)CO)nn3)CC2)nc(N2CCN(C(=O)[C@H](Cc3ccc(O)cc3)n3cc([C@@H](N)CC(C)C)nn3)CC2)n1	i	-1.47
CNc1nc2c(C)cccn2c(=O)c1C=NCc1ccccc1	i	-0.85
O=C1c2cccc(Cl)c2C(=O)c2c1cccc2N1CCCC1	i	-1.24
CCOC(=O)c1c(C)[n+](-c2ccc(C)cc2)c(CC)c2cc(OC)c(OC)cc12	i	-0.64
COc1ccc(C(=O)N(C)C2CCN(C)CC2)cc1S(=O)(=O)Nc1cc(Cl)ccc1Cl	i	-0.33
CCc1cc2c(=O)c(-c3nc4ccccc4n3C)c(C(C)C)oc2c(CN2CCN(C)CC2)c1O	i	-1.74
COc1ccc(N2C(=O)C3C4C=CC(C4)C3C2=O)nn1 (configuration not stated)	i	0.7
CCCc1cc(C(=O)Nc2sc(C(C)=O)c(C)c2C(=O)OCC)no1	i	3.06
Nc1[nH]nc2ncc3cc4ccccc4nc3c12	i	-0.01
CN(C1=C(N2CCOCC2)C(=O)c2ccccc2C1=O)c1ccccc1	i	-1
CC1(C)CC(=O)C2=C(C1)N(c1cccc(O)c1)C1=C(C2)C(=O)CC(C)(C)C1	i	8.44
O=C1CCC(=O)N1c1ccc(NCCc2cccc(F)c2)c([N+](=O)[O-])c1	i	-1.8
CCc1sc(C(=O)N2CCc3ccccc32)cc1C	i	1.97
COc1ccccc1NC(=O)COC(=O)COc1cccc2c1OC(C)(C)C2	i	-0.06
